Bioassay records: PubChem, several laboratories
Beta2AR agonist = beta2AR agonists driving receptor internalization, primary screen, cell-based, FAP fluorogen, flow cytometry; Beta-2 adrenergic receptor (Homo sapiens), P07550; Am2.2-beta2AR cells; reference of the scale not given here; response, % (test concentration not listed); 340,000 tested, 0.43% active;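 active means response above a set limit, near 3 SD of response in nonfluorescent compounds, cut at about 42% in these data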;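 further: stock transfer was 100 nL into about 11 µL; a reference agonist was the positive control; negative values mostly stem from fluorescent compounds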
E coli growth = E. coli growth inhibition, primary screen, OD600 | OD600 absorbance (concentration not given with the values) | 330,000 tested, 0.21% active | Escherichia coli growth, 23 h; active compounds read low | AID 1053175, 2014;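 active means OD600 absorbance below the run mean of sample wells minus 3.6 SD, in any replicate, cut at about 0.56 in these data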;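 further: stock transfer was 300 nL into about 60 µL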
LANA-H2B inh = blockers of LANA interaction with H2A/H2B – biochemical, FP readout, HTS, primary screen; 320,000 tested, 0.6% active; Protein LANA1 (Human herpesvirus 8 type P (isolate GK18)), Q9QR71; AID 2629, 2010; inhibition, % (no concentration beside the values); cell-free LANA-H2A/H2B peptide, fluorescence polarization; in the data active means inhibition mostly above about 10%, no sharp cut-off; inactive means mostly below about 6.7%;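 further: stock transfer was 7.5 nL into about 10 µL; 0% = median of vehicle wells and 100% = median of positive control wells; one replicate is shown; the record names a cut of 25% in any replicate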
UCH37 DUB inh = inhibitors of human UCH37 deubiquitinase, primary screen, biochemical, Ub-AMC cleavage, fluorescence. Ubiquitin carboxyl-terminal hydrolase isozyme L5 (Homo sapiens), Q9Y5K5. purified proteasome/UCH37. inhibition, % (no concentration beside the values). 330,000 tested, 0.33% active. AID 588478, 2011;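 active means mean of two replicates above 20%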;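 further: 0% = compound-free wells with enzyme and 100% = wells lacking proteasome; stock transfer was 100 nL into about 20 µL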
Target sequence (Q9Y5K5 whole entry, looked up): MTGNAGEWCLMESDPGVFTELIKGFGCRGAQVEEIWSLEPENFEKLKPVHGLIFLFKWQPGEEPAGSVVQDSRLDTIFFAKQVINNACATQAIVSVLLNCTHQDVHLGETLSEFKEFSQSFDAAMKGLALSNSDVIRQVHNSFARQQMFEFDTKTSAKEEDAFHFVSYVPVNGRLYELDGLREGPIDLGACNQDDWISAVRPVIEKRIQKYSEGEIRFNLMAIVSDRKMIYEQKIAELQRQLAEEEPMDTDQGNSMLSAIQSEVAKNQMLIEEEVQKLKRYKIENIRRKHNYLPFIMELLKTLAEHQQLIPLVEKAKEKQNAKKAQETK
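Material: Human UCH37 enzyme supplied as purified proteasome complex | Schedule: 30 min preincubation with enzyme, 25 min cleavage at room temperature | Detection: AMC fluorescence 355/460 nm | Measure: % inhibition of Ub-AMC cleavage fluorescence | Controls: Wells without proteasome as full block, compound-free enzyme plus substrate as uninhibited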
HNF4A DNA FP = change in binding of human HNF4A to DNA, primary screen, biochemical, fluorescence polarization, FITC-DNA; AID 1224865, 2016; Hepatocyte nuclear factor 4-alpha (Homo sapiens), P41235; activity change, % at 10 µM; 1 h; 360,000 tested, 0.3% active; in the data active means activity change above about 30%, passing the limit was not always enough;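 further: controls were the assay level and a saturating level of protein; the project sought stronger binding though the title names inhibitors; some compounds called inactive have numbers as strong as hits; positive values seem to mean higher polarization but the record does not say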
FGF22 binding = binders of human FGF22 protein, primary screen, FGF22 synaptogenesis inhibitor project, biophysical, thermal shift, single point. Fibroblast growth factor 22 (Homo sapiens), Q9HCT0. 340,000 tested, 1.5% active. calls only at 9.99 µM. recombinant FGF22 thermal shift, SYPRO orange fluorescence; percent of sucrose octasulfate shift, DMSO zero;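 active means melting point raised past a set limit in the mean and every replicate; inconclusive means no clear call; three in four hits are not shown here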
Target sequence (Q9HCT0 whole entry, looked up): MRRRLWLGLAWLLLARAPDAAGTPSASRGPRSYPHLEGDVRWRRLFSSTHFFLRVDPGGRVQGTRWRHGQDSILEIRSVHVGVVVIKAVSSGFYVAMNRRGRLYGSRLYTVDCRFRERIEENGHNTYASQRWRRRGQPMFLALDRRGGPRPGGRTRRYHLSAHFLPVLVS
ALR inh = inhibitors of human ALR sulfhydryl oxidase, primary screen, biochemical, H2O2 detection, HRP-luminol luminescence, single point | purified ALR, DTT oxidation | inhibition, % (test concentration not listed) | 290,000 tested, 3.8% active | AID 485317, 2010;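 active means mean and each replicate at 75% or more; inconclusive means only one of the two met; inactive means neither met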;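 further: stock transfer was 7.5 nL into about 7.5 µL; 0% = neutral wells and 100% = wells with inactivated enzyme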
Target sequence (P55789 whole entry, looked up): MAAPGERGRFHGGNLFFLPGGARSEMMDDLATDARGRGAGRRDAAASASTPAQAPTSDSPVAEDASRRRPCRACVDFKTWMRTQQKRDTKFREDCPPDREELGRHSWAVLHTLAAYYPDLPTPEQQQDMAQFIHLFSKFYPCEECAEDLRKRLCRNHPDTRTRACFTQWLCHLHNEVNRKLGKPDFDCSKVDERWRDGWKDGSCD
* marks the source's active call; other numbers are inactive results; i = inactive; u = inconclusive; x = no result given; + = active, no number. Not all compounds are listed, so the mix of outcomes need not match the whole.

No.	mol	E coli growth	ALR inh	Beta2AR agonist	FGF22 binding	HNF4A DNA FP	UCH37 DUB inh	LANA-H2B inh
1	Fc1ccc(NC(=S)Nc2nccs2)cc1	0.611	18.5	2.0	i	-2.8	2.9	-0.5
2	Cc1nnc(SCC(=O)NN2C(=O)NC3(CCCCC3)C2=O)s1	0.68	1.1	1.3	i	-0.2	0.0	-1.1
3	COC(=O)c1cc(S(=O)(=O)N2c3ccccc3CC2C)c[nH]1 (stereo unspecified)	0.705	8.3	6.5	i	-0.8	-0.7	6.8
4	Cc1nn(S(=O)(=O)c2ccccc2)c(C)c1S(=O)(=O)N1CCOCC1	x	-0.5	3.0	i	-0.5	x	1.6
5	COc1cccc(OC)c1C(=O)Nc1cccc(NC(=O)c2cccs2)c1	0.678	-3.9	2.1	i	2.9	1.1	-0.7
6	Cc1onc(-c2ccccc2)c1NC(=O)N(CCC(=O)O)Cc1ccccc1	0.694	0.1	0.8	i	0.1	0.7	1.1
7	Cc1ccc(N(CC(=O)NCc2ccc(F)cc2)S(=O)(=O)c2c(C)n[nH]c2C)cc1	0.646	-7.8	-5.1	i	2.9	2.7	1.5
8	CC1(C)C(=O)NCCN1C(=O)CCCC(=O)O	0.723	-3.2	2.4	i	4.0	-0.2	0.6
9	CC(C)CCn1c(=O)c2ccccc2n2c(CN3C(=O)NC4(CCC(C)CC4)C3=O)nnc12 (stereo unspecified)	0.744	-11.2	-20.5	x	0.6	5.8	-3.5
10	CCOC(=O)CSc1nnc(SCCN2C(=O)c3ccccc3C2=O)s1	x	5.3	15.3	x	-1.1	x	-5.5
11	Brc1cc(Br)c2nc3c(cc2c1)CCC3	0.674	5.5	-0.5	i	7.2	4.2	-10.5
12	CC(C)C(=O)N1CCN(c2ccccc2NC(=S)NC(=O)c2cccs2)CC1	0.721	x	-3.6	i	4.1	4.2	-3.8
13	CCOC(=O)c1ccc(Oc2cn[nH]c2-c2ccc(O)cc2O)cc1	0.677	u	6.3	x	8.0	4.9	-0.6
14	C=CCNC(=O)/C(=C/c1ccccc1OCC)NC(=O)c1ccccc1	x	-9.7	-9.0	i	-4.7	0.8	9.2
15	CC1(C)CC(=O)C2=C(C1)N=C1c3ccccc3C(=O)C1C2c1ccc(Cl)cc1 (stereo unspecified)	0.73	2.7	8.7	x	2.8	0.1	-5.3
16	CCCCOc1cccc(C2C(C(=O)c3ccc(C)o3)=C(O)C(=O)N2c2nnc(C)s2)c1 (stereo unspecified)	0.675	x	3.1	i	-9.5	4.0	x
17	O=C(/C=C/c1ccccc1)Nc1cccc(C(=O)NC2CC2)c1	x	x	-2.1	i	-0.3	x	x
18	CCCCc1ccc(NC(=O)c2c(C)noc2C)cc1	0.639	-8.9	-8.5	x	0.4	1.0	1.8
19	C[C@H](CO)N1C[C@H](C)[C@@H](CN(C)C(=O)NC2CCCCC2)Oc2ccc(NC(=O)Nc3ccc(C(F)(F)F)cc3)cc2C1=O	0.77	2.2	0.1	i	-0.3	-61.2	2.8
20	CC1CCCC(NC(=O)COC(=O)c2ccc3ccccc3n2)C1C (stereo unspecified)	0.738	-5.7	-4.1	x	0.5	2.5	0.1
21	CCc1nnc(NC(=O)c2cc(S(=O)(=O)N3CCN(c4ccccc4)CC3)ccc2Cl)s1	0.734	-5.3	6.5	x	4.1	0.2	-5.9
22	Cc1cc(C)cc(NC(=O)CN(Cc2ccccc2)S(C)(=O)=O)c1	0.703	-2.0	0.4	x	0.8	0.1	-5.1
23	O=C(CN1CCN(c2ncccn2)CC1)NCc1ccc2c(c1)OCO2	0.724	0.6	0.1	x	4.3	2.3	-4.6
24	CC(C)C[C@H](NC(=O)c1[nH]cnc1C(=O)N[C@@H](Cc1ccccc1)C(=O)OCc1ccccc1)C(=O)OC(C)(C)C	x	x	5.6	i	0.6	-2.1	-0.4
25	Cc1ccc(/C=N/NC(=O)NC2CCCCC2)o1	x	-2.2	-1.0	i	5.0	x	-5.0
26	COC(=O)[C@@H](NC(=O)c1ccc(OC2CCN(Cc3ccccn3)CC2)cc1)C(C)C	0.656	21.9	1.5	x	-2.3	1.1	-1.3
27	Cc1cc(C)cc(-n2ccnc2SCC(=O)O)c1	0.708	37.8	-2.1	x	-3.0	2.1	-1.9
28	Cn1c(=O)c2c(nc(N/N=C/c3ccc(OC(=O)c4ccco4)cc3)n2Cc2ccc(F)cc2)n(C)c1=O	x	-3.5	20.5	x	-0.8	x	-2.2
29	COc1cc(OC)cc(C(=O)N[C@H](C(=O)Nc2cc(C)cc(C)c2)C(C)C)c1	0.678	6.2	10.5	i	0.7	0.0	-5.1
30	COc1ccc(-c2nnc(SCC(=O)N3CCCC3)o2)cc1	0.663	-5.3	-16.1	i	-1.6	2.6	2.8
31	COc1nc(Nc2ccc(O)cc2)nc(OC(C(F)(F)F)C(F)(F)F)n1	0.678	99.0*	6.4	x	2.0	8.1	0.2
32	CN1CCN(CCCCOc2ccccc2C=O)CC1	x	-4.9	5.6	i	2.0	x	7.0
33	CCc1nnc(NC(=O)CSc2ncnc3c2cnn3-c2ccc(OC)cc2)s1	0.681	-3.6	1.5	x	3.3	-13.0	13.1
34	COc1cc([N+](=O)[O-])cc(/C=N/NC(=O)c2cncc(Br)c2)c1O	x	8.3	14.4	i	10.3	x	-2.6
35	Cc1ccc2[nH]c3ccccc3c(=O)c2c1	0.596	1.0	-2.8	i	-1.2	i	1.9
36	Nn1c(SCC(=O)Nc2ccc(S(N)(=O)=O)cc2)nnc1-c1ccco1	0.702	-13.7	-11.2	i	-1.8	2.0	-1.4
37	O=C1c2ccccc2NC(c2ccccc2Br)N1CCCN1CCOCC1 (stereo unspecified)	0.633	1.4	3.3	x	0.5	-235.8	2.2
38	Cc1cc(C)c(S(=O)(=O)NCCn2ccc3ccccc32)c(C)c1	0.789	x	-0.2	i	0.7	4.5	-6.1
39	COc1cc(NC(=O)CN2C(=O)CSc3ccc(S(=O)(=O)N4CCCC4)cc32)cc(OC)c1	0.719	x	-5.2	i	-0.3	1.4	-1.4
40	Cc1cccc(C(=O)Nc2nnc(SCC(=O)NCc3ccco3)s2)c1	0.731	-3.1	-4.8	i	-1.1	-13.4	3.2
41	COc1ccc(C(=O)/C=C/c2ccc(O)cc2)c(O)c1C/C=C(\C)CCC=C(C)C	0.692	x	3.1	i	3.8	12.7	x
42	Cc1ccccc1Cn1cc(S(=O)(=O)CC(=O)N2CCCCC2)c2ccccc21	0.696	-11.7	-4.2	x	-0.3	0.3	-1.7
43	C=CCNc1nc(NCC)nc(N2CCOCC2)n1	0.76	-6.5	5.3	x	0.2	3.9	-8.6
44	COc1ccc2ccccc2c1/C=N/NC(=O)c1sc(N)c(C#N)c1C	x	-5.8	9.2	i	11.5	x	+
45	CCN(CC(=O)Nc1ccc2c(c1)OCCO2)S(=O)(=O)c1cccs1	0.687	-10.7	8.0	x	-0.7	-1.4	3.4
46	CN(C)CCCN(C(=O)COc1ccccc1)c1nc2c(F)cccc2s1	0.711	-5.6	-4.6	i	0.1	5.8	-2.4
47	CCC(C)(C)n1nnnc1C(c1ccc(OC)cc1)N1CCN(C(=O)c2ccco2)CC1 (stereo unspecified)	0.659	x	-0.3	i	0.5	3.7	0.5
48	O=C(Cc1ccc(F)cc1)Nc1cccc2cccnc12	0.661	-6.7	-2.1	x	0.1	3.4	-9.4
49	Cc1nc2c(Br)c3nc(C(F)(F)F)[nH]c3c(Br)c2[nH]1	0.693	-13.9	6.8	x	1.5	1.6	-0.8
50	O=C(NCc1ccccc1)c1csc2c1CCCCC2	0.729	-3.7	3.9	x	-1.2	0.8	4.5
51	CCCCC1=CC2=CC(=O)C(C)(OC(=O)CC)C(=O)C2=CN1CCCCO (stereo unspecified)	0.625	x	-5.7	i	-0.1	3.8	-3.3
52	O=C(Nc1ccc(N2CCN(Cc3ccccc3)CC2)cc1)c1ncn[nH]1	0.648	0.8	9.8	x	1.5	1.8	0.3
53	CC(C)CNC(=O)CN1C(=O)NC2(CCc3ccccc32)C1=O (stereo unspecified)	0.707	-7.0	6.5	i	1.7	1.0	4.5
54	O=C(CCc1nc2ccccc2[nH]c1=O)N/N=C/c1ccccc1	x	-1.8	-4.6	i	3.2	x	-0.1
55	CC(C)(C)C(=O)Nc1cc(C(F)(F)F)ccc1-n1ccnc1	0.712	x	0.1	i	4.2	1.3	3.6
56	CC(=O)Oc1ccc(C2=NN(c3ccccc3)C(c3ccccc3)C2)cc1 (stereo unspecified)	0.713	-4.6	-1.6	i	-1.6	i	0.0
57	COc1cccc(C2Cc3ccccc3C(=O)O2)c1 (stereo unspecified)	0.697	-0.5	-1.4	x	-3.0	2.4	0.6
58	O=C(Nc1cccc(-n2cnnn2)c1)c1ccc(Cl)cc1Cl	0.69	-4.4	-29.5	i	0.2	5.7	-3.7
59	O=C(CN1CCN(c2ccccn2)CC1)Nc1cccc(Br)c1	0.676	x	-5.1	i	-0.9	1.1	7.4
60	CC1CN(C(=O)CCc2ccccc2)C(C)CN1C(=O)CCc1ccccc1 (stereo unspecified)	0.7	-3.6	-6.2	x	-0.1	3.1	10.0

More results follow.
No.	mol	E coli growth	ALR inh	Beta2AR agonist	FGF22 binding	HNF4A DNA FP	UCH37 DUB inh	LANA-H2B inh
61	O=C1CN(C(=O)c2cc(F)cc(F)c2)c2ccccc2N1	0.685	-12.2	1.4	i	0.7	0.5	-3.4
62	CSc1ncccc1C(=O)N(C)CC(=O)Nc1ccc(Cl)c(C(F)(F)F)c1	0.698	10.8	2.8	i	1.1	2.1	3.5
63	O=S(=O)(c1ccccc1Br)N(CC(O)COCc1ccccc1)C1CC1 (stereo unspecified)	0.691	x	-6.1	i	-2.5	4.2	x
64	Fc1ccc(NC(=S)N2CCCC2)cc1	0.716	-1.9	-3.7	x	-2.0	0.5	-4.0
65	O=C(/C=C/c1ccc(F)cc1)Nc1ccc(S(=O)(=O)N2CCOCC2)cc1	0.684	-2.6	11.2	i	3.8	-1.8	6.1
66	CS(=O)(=O)Nc1ccc(C(=O)NCCSc2ccc(Cl)cc2)cc1	0.674	-3.2	2.9	i	-0.8	6.4	1.9
